Screens (PubChem)
Vaccinia mCherry: inhibitors of vaccinia virus infection (mCherry reporter signal) | 310,000 tested, 0.63% active | AID 720579 | Potency, µM (doses to about 36.5 µM), for inactives: at the top dose activity change, negative = inhibition, most hits filed as inhibitors | Vaccinia virus mCherry reporter infection, fluorescence; about a quarter of the inactives have no number; active = well fitted inhibition curve with a large enough effect; inconclusive = small, poorly fitted or top-dose-only effect; inactive = no such curve, though single readings can be large or run the other way; tested in A549 cells; note: nearly all actives have a fitted effect of over 35% in size; inactives centre near -10
Vaccinia Venus: vaccinia inhibition (Venus reporter). Vaccinia virus Venus reporter expression, fluorescence. Potency, µM (highest dose often 36.5 µM), inactives show at the highest dose activity change, negative = inhibition, actives largely listed as inhibitors. 330,000 tested, 0.46% active. AID 720580; active means well fitted inhibition curve with a large enough effect; inconclusive means small, poorly fitted or top-dose-only effect; inactive means no such curve, though single readings can be large or run the other way; tested in A549 cells; note: nearly all actives have a fitted effect of over 30% in size; inactives centre near -10
* marks the source's active call; other numbers are inactive results; i = inactive; u = inconclusive; x = no result given; & = joins results of further samples; [ ] = another dose, or the depositor's remark. % is set by controls: 0 for no effect and ±100 for the full control effect; potency is the fitted concentration of half-maximal effect.

The first 2 compounds, ahead of the listing:
SMILES	Vaccinia mCherry	Vaccinia Venus
CCSc1nnc(NC(=O)c2cccc(S(=O)(=O)N(C)c3ccccc3)c2)s1	-18.6%	-20.4%
COc1cc(OC)c(/C=N/NC(=O)c2ccncc2)c(OC)c1	-16.7%	-7.1%

Main list, repeating the preview:
SMILES	Vaccinia mCherry	Vaccinia Venus
CCSc1nnc(NC(=O)c2cccc(S(=O)(=O)N(C)c3ccccc3)c2)s1	-18.6%	-20.4%
COc1cc(OC)c(/C=N/NC(=O)c2ccncc2)c(OC)c1	-16.7%	-7.1%
CCCC(C1=C(O)CC(C)(C)CC1=O)C1C(=O)CC(C)(C)CC1=O (centres undefined)	i	-8.0%
COc1ccc(NC(=O)C2CCC(N3C(=O)C4C5C=CC(C5)C4C3=O)CC2)cc1 (centres undefined)	-11.9%	-10.5%
CC1(C)CC(O)C(C)(C)N1O (centres undefined)	-6.7%	-4.0%
CCOc1ccc2[nH]c(=O)c(CN(Cc3cccs3)Cc3nnnn3C(C)(C)CC)cc2c1	u	u
COC(=O)c1ccc2c(c1)N(C)C(=O)CS2	-20.9%	-11.4%
CCCn1nnnc1NC(=O)c1ccc2ccccc2c1	i	-12.3%
CN(Cc1ccc(Cl)cc1Cl)C(=O)Cc1ccc(S(=O)(=O)N2CCOCC2)s1	-27.1%	-18.3%
CC(NC(=O)c1cccc2c1Oc1ccccc1S2)C(=O)O (centres undefined)	-14.4%	-6.4%
O=C(Nc1ccc(Nc2ccccc2)cc1)c1c(F)c(F)c(F)c(F)c1F	u	u
CCC(CC)C(=O)NC1CC(=O)N(c2ccc3c(c2)OCCO3)C1 (centres undefined)	2.6%	-1.8%
COC(=O)/C=C1/S/C(=N/NC(=O)c2ccc(OC)cc2)NC1=O	i	-10.1%
CC(C)(C)c1ccc(-c2n[nH]c(=S)n2Cc2ccccc2)cc1	-10.3%	-16.1%
Cc1cc(NS(=O)(=O)c2ccc(NC(=O)c3ccc([N+](=O)[O-])c(Cl)c3)cc2)no1	i	-11.8%
CCOC(=O)c1nn(-c2ccccc2)c2nnc(Cc3ccccc3)c(=O)n12	-5.2%	-6.9%
NC(=O)C1CCN(C(=O)c2ccc3c(c2)N(Cc2cccc(Cl)c2)C(=O)c2ccccc2S3(=O)=O)CC1	-6.0%	-4.4%
NCCc1c(Cc2ccccc2)[nH]c2ccccc12	-23.7%[7.34 µM]	-7.2%[7.34 µM]
O=C(c1ccc(F)cc1)N1CCN(c2ccc([N+](=O)[O-])c(N3CCCCC3)c2)CC1	-27.4%	-10.7%
COC(=O)C1=CN(c2cc(C)cc(C)c2)C=C(C(=O)OC)C1c1ccc(OC)c(O)c1	u	-17.2%
CCOC(=O)C1=CNS(=O)(=O)NC1c1ccc(C(=O)OC)cc1 (centres undefined)	-12.2%	5.3%
COc1ccc(C2=NC3(CCCCCC3)N(CC(=O)Nc3cccc(Cl)c3)C2=O)cc1	-25.7%	-21.8%
Cc1ccc(N2C(=O)CC(C)CC2=O)cc1	0.4%	0.3%
COc1ccc(N2C(=O)CSC2c2ccc3c(c2)OCO3)c(OC)c1 (centres undefined)	-6.8%	-22.7%
CC(C)c1ccc(NC(=O)CSc2nc(=O)n(CCCN3CCOCC3)c3c2CCC3)cc1	-23.5%	-15.6%
CC1=C(C(=O)Nc2ccccc2C)C(c2ccco2)n2ncnc2N1 (centres undefined)	0.9%	7.9%
CCC(=NCCO)c1c(O)n(C2CCCCC2)c(=O)[nH]c1=O	-10.9%	-6.2%
CCc1cc2cc3c(cc2nc1SCC(=O)Nc1cc(C)on1)OCO3	-16.1%	-16.5%
O=[N+]([O-])c1ccc(-c2csc3[n+]2CCS3)cc1	x	-17.9%
CC(C)C[C@H](NC(=O)[C@H](Cc1ccccc1)NC(=O)CNC(=O)[C@H](CO)NC(=O)[C@@H](N)Cc1ccc(O)cc1)C(=O)N[C@H](C(=O)O)[C@H](C)O	-14.4%[3.33 µM]	-5.3%[3.33 µM]
CC1CCN(CCCCOc2ccc(C(=O)c3ccccc3)cc2)CC1	-11.0%	-11.5%
Cc1ccccc1C(=O)c1cccn1CC(=O)NCCCN1CCCCC1	-2.1%	-13.0%
CC(C)OCCCNC(=O)c1cn(C)c2ccc(S(=O)(=O)N3CCCCCC3)cc2c1=O	-18.2%	-4.8%
CN(C)C=Nc1c(C(=O)c2ccccc2)sc2nccc(N(C)C)c12	i	-14.8%
O=C(O)c1cccnc1SCc1cn2cc(Cl)ccc2n1	i	0.9%
CC1CC(C)CN(C(=O)c2ccncc2)C1 (centres undefined)	4.4%	7.5%
CCOC(=O)C1(C(=O)OCC)C(C(=O)c2ccccc2)C1c1ccccc1 (centres undefined)	-29.6%	9.1%
COc1cc(-c2noc(C)c2C#CC2(N)CCCCC2)cc(OC)c1OC	-8.5%	-16.9%&-19.0%
CN(C)CC(O)COc1cccc(OCC(O)CN(C)C)c1 (centres undefined)	8.7%	8.8%
COc1ccccc1CNC(=O)COC(=O)/C=C/c1cccs1	i	-6.2%
CCCCC(=O)Nc1cc(OCC)c(NC(=O)c2ccccc2[N+](=O)[O-])cc1OCC	-11.4%	-6.5%
CCOC(=O)C(C)(C)N(Cc1cccc(C)c1)S(=O)(=O)c1ccc(Cl)c([N+](=O)[O-])c1	u	u
CC(C)C[C@H]1CN([C@@H](Cc2ccccc2)CN2CCC[C@@H]2CN2C(=O)C(=O)NC[C@@H]2Cc2ccccc2)C(=O)C(=O)N1CC1CCCCC1	u	u
CCCCN(C(=O)CN1C(=O)C2CCCCC2C1=O)c1c(N)n(CCC)c(=O)[nH]c1=O (centres undefined)	-11.9%	-7.9%
O=C1c2ccccc2C(=O)N1CCCCN(C(=O)c1ccc([N+](=O)[O-])cc1)c1ccc(Cl)cc1	-25.8%	-16.8%
COCC(=O)Nc1c(C(=O)Nc2ccc(C)cc2)oc2ccccc12	-12.6%	-5.1%
c1ccc(Cn2nnnc2C(c2ccccc2)N2CCN(c3nc4ccccc4s3)CC2)cc1 (centres undefined)	x	12.1%
COc1cc(/C=N/N=C2/C(=O)Nc3ccccc32)cc(OC)c1O	-7.1%	-13.7%
Cc1cccc(NC(=O)c2ccc(CN3CCN(Cc4ccccc4)CC3)cc2)c1	-6.7%	-9.4%
COc1ccc(NC(=O)CC2C(=O)N(C)C(=S)N2Cc2ccncc2)cc1 (centres undefined)	6.9%	6.6%
CCOc1ccc2nc(NC(=O)CSc3cn[nH]n3)sc2c1	-17.6%	-17.8%
Cc1cc(OCC(=O)OCC(=O)Nc2cccnc2Cl)ccc1Cl	i	-15.3%
Cc1oc(-c2cccs2)nc1CN1CCC(c2ccccc2)CC1	i	-1.0%
O=C1O[C@@H](c2ccccc2)C[C@@H](O)C(=O)CCCc2ccccc21	-16.3%	0.4%
O=C(Oc1cccc2c(=O)[nH]ccc12)c1ccccc1	x	-1.4%
O=S(=O)(c1ccc(NC(=S)N/N=C/c2cccc(Oc3ccccc3)c2)cc1)N1CCOCC1	u	5.9%
CCOc1ccc(NC(=O)CN(C)C(=O)c2cc(S(=O)(=O)N3CCCCC3)ccc2Cl)cc1OCC	i	-16.8%
O=C(Nc1ccc2c(c1)OCCO2)C1CCCN1C(=O)Nc1ccc(F)cc1 (centres undefined)	-20.1%	0.6%
CC(C)(O)C1Cc2cc(/C=C/C(=O)O)c(O)cc2O1 (centres undefined)	i	-5.3%
O=C(CCS(=O)(=O)c1cccc2nsnc12)NCc1ccccc1Cl	-24.8%	-22.4%

Later entries:
SMILES	Vaccinia mCherry	Vaccinia Venus
Cc1ccc(NC(=O)C(NS(=O)(=O)c2ccc3c(c2)CCC(=O)N3)c2ccccc2)cc1C (centres undefined)	-14.0%	-4.2%
CCN(Cc1cnn(C)c1)Cc1nc(C2(c3ccc(C)cc3)CCCC2)no1	i	-16.2%
CC(=O)Nc1cccc(Oc2nc(NCC3CC3)nc3ccsc23)c1	u	u
COc1ccc(-c2cc3nc(-c4ccccc4)cc(N4CCN(C(C)=O)CC4)n3n2)cc1	u	u
Clc1ccc(-c2cc(CSc3cccc(Cl)c3)on2)cc1	x	15.5%
Cc1cc(C(=O)NNC(=O)C2CCCC2)c(C)o1	-4.1%	-15.8%
COc1ccc(N2CCCn3c2nc2c3c(=O)n(Cc3ccc(C)cc3)c(=O)n2C)c(OC)c1	0.8%	-12.3%
COc1ccccc1NC(=O)NC1(C(=O)N2CCN(C)CC2)CCCCC1	-3.5%	7.1%
CCC(C)(C(=O)NC1CCCCC1)N(Cc1ccco1)C(=O)CNC(=O)c1ccccc1 (centres undefined)	i	-10.1%
COc1ccc(/C=C/C(=O)c2ccc(OC)cc2OC)c(OC)c1	3.5%	6.9%
O=C(O)c1cc(N/N=C/c2ccncc2)ccc1Cl	i	-13.9%
CCOc1ccc(/C=N/NC(N)=S)cc1	1µM*	1µM*
O=c1[nH]c(=O)n(-c2cccc3ccccc23)c(O)c1C=NCCCn1ccnc1	i[1.46 µM]	1.3%
Cc1ccc(NC(=O)C(=S)NCc2ccco2)cc1	x	-8.2%
COc1ccc(C(=O)C2CCCN(C(=O)c3cccnc3SC)C2)c(C)c1 (centres undefined)	i	-18.1%
O=C(CSc1ccc([N+](=O)[O-])cc1)NCC1CCCCC1	-3.5%	0.7%
CCn1c(=O)c2c(nc(SCC(=O)N3CCCC(C)C3)n2C)n(C)c1=O (centres undefined)	-6.5%	-5.6%
COc1ccccc1CN1C(=O)[C@@H]2C(CCC(N)=O)NC3(C(=O)Nc4c3ccc(Cl)c4C)[C@@H]2C1=O (some centres undefined)	-7.5%	-5.3%
COc1cccc(NC(=O)CSc2nc(C)c(Cc3ccccc3)c(=O)[nH]2)c1	-14.5%	-9.5%
COc1ccc(N2CCN(C(=O)COC(=O)CCOc3ccc(C(C)(C)C)cc3)CC2)cc1	-5.4%	-4.5%

Molecules from the list above containing fluorine, in the order listed:
SMILES	Vaccinia mCherry	Vaccinia Venus
O=C(Nc1ccc(Nc2ccccc2)cc1)c1c(F)c(F)c(F)c(F)c1F	u	u
O=C(c1ccc(F)cc1)N1CCN(c2ccc([N+](=O)[O-])c(N3CCCCC3)c2)CC1	-27.4%	-10.7%
O=C(Nc1ccc2c(c1)OCCO2)C1CCCN1C(=O)Nc1ccc(F)cc1 (centres undefined)	-20.1%	0.6%

More records follow:
SMILES	Vaccinia mCherry	Vaccinia Venus
Cc1ccc(C)c(S(=O)(=O)Nc2ccc(C(=O)NCCCN3CCCC3=O)cc2)c1	i	-8.9%
NC(=O)c1ncn([C@@H]2O[C@H](CNCc3c(OCc4ccccc4F)ccc4ccccc34)[C@@H](O)[C@H]2O)n1	-0.4%	0.0%
CCOc1ccc(N(CC(=O)NCC(C)C)S(C)(=O)=O)cc1	x	-10.5%
COC(=O)C1=C(c2cccc(C#N)c2)C[C@@H]2CC[C@H]1N2C(=O)NCCNC(C)=O	-16.0%	-4.3%
COc1ccc(C(=O)Nc2cccnc2)cc1C(=O)Nc1cccnc1	-0.2%	-12.9%
N#C/C(=C\c1c(F)cccc1Cl)C(=O)NC1CC1	-2.0%	-14.1%
O=C(COc1ccc(S(=O)(=O)N2CCCC2)cc1[N+](=O)[O-])N1CCCCC1	-5.4%	-13.5%
O=C(CN(Cc1ccc(F)cc1)C(=O)c1ccco1)NCc1ccc(F)cc1	-16.6%	-10.2%
COC1OC2COC(c3ccccc3)OC2C(O)C1NC(C)=O (centres undefined)	-6.3%	2.3%
CC(Oc1ccccc1)C(=O)Nc1nnc(S(=O)(=O)N2CCCCC2)s1 (centres undefined)	-14.4%	-2.8%
O=C(N/N=C/c1ccc([N+](=O)[O-])o1)c1cn2ccc3ccccc3c2n1	i	-9.2%
CN(c1cccc(NC(=O)COc2ccc(Cl)cc2Cl)c1)S(C)(=O)=O	u	-26.5%
CCOc1ccccc1-c1nnc(SCc2ccc(Cl)cc2)o1	-3.7%	-3.8%
Cc1ccccc1C(=O)N1CCN(c2ccc([N+](=O)[O-])c(N3CCOCC3)c2)CC1	-9.5%	-9.8%
O=C(CCC(=O)c1cccs1)NCc1cccc(C(F)(F)F)c1	-18.8%	-21.1%
CN(C)C(CNC(=O)c1cccc(S(=O)(=O)Nc2ccccc2Cl)c1)c1ccccc1 (centres undefined)	-1.0%	-19.5%
CCC(C)NC(=O)c1ccc2c(c1)N=C(C)c1cc(C)ccc1S2 (centres undefined)	-22.8%	-20.4%
Cc1csc(NC(=O)c2sc3nc(-c4cccs4)ccc3c2N)n1	u	-17.5%
Cc1nc(-c2cn[nH]c2-c2ccc(O)cc2O)cs1	-9.8%	-14.9%
CCOc1cc(/C=C(\CC(=O)O)c2nc3ccccc3s2)ccc1OCC(=O)Nc1cccc(C(F)(F)F)c1	-8.8%	-2.2%
CCN1CCN(c2ccc(NC(=O)CCc3c(C)nc4c(-c5ccccc5)c(C)nn4c3C)cc2)CC1	i	-24.5%
Cc1cc(=O)oc2cc(O)c(O)cc12	i	0.0%
CCCCSc1nc2c(cnn2-c2ccc(Cl)cc2)c(=O)[nH]1	-11.2%	0.9%
COCCN(C(=O)CCC(=O)Nc1nccs1)C(C(=O)NC(C)(C)C)c1ccc(Cl)cc1 (centres undefined)	i	-3.8%
Cc1cccc(C)c1NC(=O)NC1(C(=O)N2CCCC2)CCCCC1	8.3%	0.8%
O=c1cc(CSc2ccc(Cl)cc2)nc2nc[nH]n12	0.4%	2.1%
CCCCCn1c(SCC(=O)c2ccccc2)nc2cc(C(=O)NCC3CCCO3)ccc2c1=O (centres undefined)	-6.4%	-13.3%
COc1ccc(C(=O)O/N=C(\N)c2ccc(Br)cc2)cc1	-14.9%	-23.4%
COc1ccccc1N1CCN(C(=O)c2cn(-c3ccccc3)nc2-c2cccnc2)CC1	-11.4%	-26.8%
